CSC inhib: cancer stem cell viability inhibitors, primary screen, luminescence; cancer stem cell-like cells viability; inhibition, % at 7.5 µM; actives 1.1% (n = 300,000);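 active = mean at 75% or more and at least half the replicates too; inconclusive = mean and replicates disagree; tested in HMLE shEcad cells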;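 also: 0% = median of negative and 100% = median of positive control wells; the first replicate is given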
PABP FP inh: PABP poly(A) RNA binding inhibitors, primary screen, biochemical, fluorescence polarization, uHTS | inhibition, % at 35 µM | actives 1% (n = 290,000) | Polyadenylate-binding protein 1 (Homo sapiens), P11940 | AID 2014, 2009;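 active = 50% or more with normal probe brightness, or confirmed in later tests; inconclusive = above 50% with abnormal brightness, or retests that disagree; inactive = below 50% or failed in later tests; about a fifth of its hits are not listed in these tables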;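 also: calls also rest on retests at 20 µM and on dose response follow-up; controls were probe without protein and protein plus probe with vehicle; some compounds called inactive have numbers as strong as hits; many hits fall short of the cut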
Target sequence (P11940 whole entry, looked up): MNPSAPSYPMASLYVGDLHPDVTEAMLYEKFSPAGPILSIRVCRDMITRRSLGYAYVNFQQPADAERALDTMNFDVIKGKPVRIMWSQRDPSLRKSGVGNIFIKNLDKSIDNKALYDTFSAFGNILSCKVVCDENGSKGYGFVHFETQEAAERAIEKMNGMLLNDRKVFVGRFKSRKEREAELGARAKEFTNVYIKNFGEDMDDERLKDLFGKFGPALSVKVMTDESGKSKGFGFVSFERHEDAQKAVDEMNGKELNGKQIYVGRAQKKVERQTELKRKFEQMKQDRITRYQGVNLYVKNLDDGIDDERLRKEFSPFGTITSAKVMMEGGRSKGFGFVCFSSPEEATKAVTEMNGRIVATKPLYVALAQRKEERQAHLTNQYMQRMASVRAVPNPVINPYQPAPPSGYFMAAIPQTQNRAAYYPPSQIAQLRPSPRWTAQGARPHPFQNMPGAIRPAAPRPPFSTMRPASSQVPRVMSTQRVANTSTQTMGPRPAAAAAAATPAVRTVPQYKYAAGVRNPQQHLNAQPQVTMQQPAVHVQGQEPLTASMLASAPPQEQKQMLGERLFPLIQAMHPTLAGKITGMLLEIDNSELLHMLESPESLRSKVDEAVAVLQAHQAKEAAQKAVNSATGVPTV
MT1-MMP act inh: blockers of MT1-MMP proenzyme processing, primary screen, HT1080 RFP-PRO-GFP cells, GFP/RFP fluorescence; Matrix metalloproteinase-14 (Homo sapiens), P50281; GFP/RFP ratio fluorescence, overnight; percent of plate control window, DMSO zero; GFP/RFP ratio change, % at 20 µM; actives 0.061% (n = 360,000);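 active = GFP/RFP ratio change of at least 30% with cell ATP level not reduced by more than half and red fluorescence within 50% of control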; also: strong numbers were not always called active
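Assay system: HT1080 RFP-PRO-GFP cells | Dosing: 20 µM single dose, 1% DMSO | Incubation: Cells overnight before dosing, compound overnight, 37 °C, 5% CO2 | Evaluation: GFP/RFP fluorescence ratio | Control set: DMSO-only wells and HT1080 RFP-L50D-GFP cell wells as references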
Rce1 inhib: yeast Rce1p protease inhibitors, primary screen, biochemical, fluorescence, cell-free homogeneous | actives 0.27% (n = 290,000) | CAAX prenyl protease 2 (Saccharomyces cerevisiae (strain ATCC 204508 / S288c)), Q03530 | yeast membranes, quenched prenylated peptide cleavage fluorescence | AID 2563, 2010 | calls only;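 active = fall in fluorescence gain of 50% or more versus controls, with final raw signal at or below 3038400; inconclusive = same 50% fall but final raw signal above 3038400; inactive = fall in fluorescence gain under 50%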;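 also: plate controls were neutral control wells for no effect and wells lacking membranes for full effect; tested at 10 µM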
HIV Env fusion: inhibitors of HIV-1 Env-driven cell-cell fusion, primary screen, HeLa-JRFL effector, CEM21 target cells, luciferase | inhibition, % at 12.3 µM | actives 1.1% (n = 360,000);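 active = mean replicate inhibition score of at least 50 and every replicate individually at or above 50; inconclusive = only one of the two criteria met; inactive = mean below 50 and not all replicates reaching 50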;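 also: 0% = plate neutral controls and 100% = maraviroc near 300 nM; one replicate is shown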
Yeast UUG start: modulators of yeast start codon fidelity, primary screen, whole organism, S. cerevisiae, single point, plate reader; S. cerevisiae UUG-firefly luciferase reporter, luminescence/redox ratio; activity score, % at 18.7 µM; actives 0.13% (n = 350,000);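 active = replicate mean at a twofold rise or more, about +100% in these data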;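 also: firefly luciferase made from a UUG start codon reports start codon fidelity; reporter light over untreated wells divided by growth signal over untreated wells; some hits fall short of that in this replicate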
eIF4H inh: human eIF4H binding inhibitors, primary screen, translation initiation inhibitor project, biochemical, uHTS, fluorescence polarization. Eukaryotic translation initiation factor 4H (Homo sapiens), Q15056. eIF4H fluorescence polarization binding assay. actives 0.94% (n = 290,000). inhibition, % at 35 µM. AID 2012, 2009;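 active = 50% or more with normal probe brightness, or confirmed in later tests; inconclusive = above 50% with abnormal brightness, or retests that disagree; inactive = below 50% or failed in later tests; about a fifth of its hits are not listed in these tables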;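 also: calls also rest on retests at 20 µM and on dose response follow-up; 0% = protein and probe with vehicle and 100% = probe without protein; strong numbers were not always called active; many hits fall short of the cut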
eIF4H inh retest: second read-out of eIF4H inh, no call of its own (marks repeat the call); inhibition, %; compound at 20 µM; confirmation average;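 mean of two retest wells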
PABP FP inh retest: also measured in PABP FP inh; calls as there; inhibition, %; compound at 20 µM; confirmation repeats;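 mean of two retest wells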
MT1-MMP act inh RFP: recorded beside MT1-MMP act inh, whose call it bears; RFP signal change, %; measured here: RFP expression control read;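 0 = vehicle wells; hits needed this value within 50% of zero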
* marks the source's active call; other numbers are inactive results; i = inactive; u = inconclusive; x = not tested or not shown; & = joins results of further samples; ! = not active in a repeat; [ ] = another dose, or the depositor's remark. These rows are one share of the data. The share of hits here may be higher or lower than overall.

SMILES	CSC inhib	PABP FP inh	MT1-MMP act inh	MT1-MMP act inh RFP	Rce1 inhib	HIV Env fusion	Yeast UUG start	eIF4H inh	others
O=C(CCSc1nc(-c2ccco2)cc(C(F)(F)F)n1)NCc1ccccn1	2	-7	-2	3	i	x	x	0
O=C(CSc1ccccc1)Nc1ccccc1C(=O)O	5	-6	4	2	i	-39	-15	2
CCOC(=O)Cc1csc(NC(=O)COc2ccccc2)n1	x	16	2	2	i	-60	x	3
Cc1cc(S(=O)(=O)NC2CCCCC2)c(C)s1	-14	-7	-2	1	i	-38	-13	-20
O=C(N/N=C/c1ccc(N2CCOCC2)cc1)c1ccncc1	-14	x	5	1	x	x	-29	x
S=c1[nH]nc(COc2ccccc2)n1/N=C/c1cccc(Cl)c1Cl	35	4	-8	-6	i	-1	-14	17
CS(=O)(=O)N(CC(=O)NCc1ccc2c(c1)OCO2)c1ccc(Cl)cc1	-2	8	3	3	i	-29	6	5
Cc1ccccc1CN(c1ccc(C(=O)Nc2ccccc2C(=O)N2CCCC2)cc1)S(C)(=O)=O	-1	-1	2	1	i	-225	x	-6
CC(C)NC(=O)c1cc(-c2ccc3c(c2)OCO3)on1	2	4	0	2	i	-70	-40	4
CCC(=O)Oc1ccc(NC(=O)c2ccc(S(=O)(=O)N3CCCC3)cc2)cc1	x	x	-2	-18	x	23	11	x
CCOc1ccc(S(=O)(=O)NCc2ccncc2)cc1	22	-10	-5	-20	i	85*	-2	1
COc1cc(C(=O)O)c([N+](=O)[O-])c(OC)c1OC	-6	14	-1	-4	i	-7	1	-1
O=C1OCCN1C(=O)[C@H]1[C@H](c2ccc([N+](=O)[O-])cc2)C(c2ccccc2)=NN1c1ccccc1	x	x	0	3	x	-13	-9	x
CC(=O)c1cccc(NC(=O)c2csc(-n3nc(C)cc3C(F)(F)F)n2)c1	21	-1	3	2	i	-8	-5	-8
C/C=C/C(=O)OCC(=O)Nc1ccc(C)c(S(=O)(=O)N(C)C)c1	4	-9	0	2	i	-6	x	-3
Nc1nc(NC(=O)CCCC(=O)O)nn1-c1ccccc1	-1	-7	8	5	i	x	-10	-4
COc1ccc2c(C(=O)c3ccc(C)cc3)n(CCC(N)=O)[n+]([O-])c2c1	-7	-9	-4	0	i	-13	-3	3
N#Cc1cc(-c2ccccc2)nnc1Oc1ccccc1Cl	-6	2	2	-6	i	x	1	2
COc1ccc(CCNC(=O)Cn2cnc3c(nnn3Cc3ccc(C)cc3)c2=O)cc1OC	x	-10	1	-6	i	x	-2	-2
COc1cccc(N2C(=O)c3ccncc3C2=O)c1	-6	-6	-1	0	i	-30	-8	-4
O=C(COC(=O)c1ccc([N+](=O)[O-])o1)c1ccccc1	-6	-14	3	6	i	10	-13	-5
Cc1cccc(C)c1NC(=O)C1CCCN1S(=O)(=O)c1ccc(-c2ccc(=O)[nH]n2)s1 (centres undefined)	2	1	-3	4	i	11	-1	-6
Cc1ccc(Cn2c(SC3CCOC3=O)nc3ccccc3c2=O)cc1 (centres undefined)	x	12	7	5	i	x	-2	-6
COc1ccc(C(=O)NCC(c2ccco2)N2CCc3ccccc3C2)c(OC)c1 (centres undefined)	x	x	0	-4	x	-2	0	x
COc1ccc(C(=O)OCC(=O)NCC2CCCO2)cc1 (centres undefined)	x	35	-2	2	i	-3	x	7
CCOc1ccc(NC(=O)Cn2c(=O)oc3ccccc32)cc1	-11	-3	-6	-1	i	x	-10	-8
Cc1ccn2c(C(=O)CSc3ccc(Cl)cc3)c(C)nc2c1	x	-9	2	2	i	x	x	1
N#Cc1cnn2c(=O)[nH]cnc12	x	x	-7	-3	x	12	-15	x
CN(C)c1ccc(/C=N/NC(=O)c2ccccc2O)o1	1	-6	-5	-1	i	8	x	12
COC(=O)c1ccccc1NC(=O)N1CCN(c2ccccc2F)CC1	-3	-4	5	4	i	7	-23	-3
CN(C)CCNC(=O)c1ccc2nc([C@@H]3O[C@H](CO)[C@H](O)[C@H](O)[C@H]3O)[nH]c2c1	x	x	1	1	x	-7	-5	x
CCOC(=O)c1ccc(N=c2sc(C(=O)OC)cc(=O)n2CCCN2CCOCC2)cc1	101*!	11&3	0&-4	-5&0	i	23&9	22&-3	-4&0
Cc1ccc(-n2c(C)cc(C(=O)OCC(=O)N3CCOCC3)c2C)cc1	-8	x	5	0	x	-13	-11	x
CCc1cn(S(=O)(=O)c2ccccc2OC)nc1N	-2	-5	1	2	i	x	-6	10
CN1CCN(NC(=O)c2ccccc2F)CC1	2	-6	4	0	i	x	-23	-5
COc1ccc(NC(=S)NCc2cccs2)c(OC)c1	-10	-4	0	3	i	-1	x	-6
Cc1nnc(SCC(=O)NNC(=O)c2ccc(Cl)cc2)s1	10	-1	-1	0	i	-3	-16	-1
N#Cc1cnc(N)c(Br)c1	-3	-2	-6	3	i	7	x	-3
CC(C)=CCC/C(C)=C/CNC(=O)CC1C[C@H](C(=O)N2CCOCC2)[C@@]2(C)c3[nH]c4ccccc4c3CCN2C1=O (some centres undefined)	20	x	-10	-18	x	-23	-5	x
CC(C)(C)/C(O)=C/c1nc2ccccc2[nH]c1=O	0	-10	1	2	i	12	x	-4
O=[N+]([O-])c1ccc(Nc2ccccn2)c([N+](=O)[O-])c1	-16	4	x	x	i	-4	-5	-11
CCNC(=S)Nc1cc(C)ccn1	-23	18	1	2	i	5	x	3
Nc1nc(SCC(=O)NCC2CCCO2)[nH]c(=O)c1NC(=O)c1ccco1 (centres undefined)	-1	-5	7	6	i	-7	-4	2
c1ccc(Oc2nc(N3CCOCC3)nc(N3CCOCC3)n2)cc1	8	7	-3	-2	i	-11	-11	2
COc1ccc(CNS(=O)(=O)c2ccc(OC)cc2)cc1	-6	-6	7	3	i	x	-10	-4

Part of the list above in order of length of the SMILES, smallest number first.
SMILES	CSC inhib	PABP FP inh	MT1-MMP act inh	MT1-MMP act inh RFP	Rce1 inhib	HIV Env fusion	Yeast UUG start	eIF4H inh	others
O=C(CSc1ccccc1)Nc1ccccc1C(=O)O	5	-6	4	2	i	-39	-15	2
c1ccc(Oc2nc(N3CCOCC3)nc(N3CCOCC3)n2)cc1	8	7	-3	-2	i	-11	-11	2
CC(C)=CCC/C(C)=C/CNC(=O)CC1C[C@H](C(=O)N2CCOCC2)[C@@]2(C)c3[nH]c4ccccc4c3CCN2C1=O (some centres undefined)	20	x	-10	-18	x	-23	-5	x

Other compounds:
SMILES	CSC inhib	PABP FP inh	MT1-MMP act inh	MT1-MMP act inh RFP	Rce1 inhib	HIV Env fusion	Yeast UUG start	eIF4H inh	others
CCCc1[nH]nc2c1C(c1ccc(OCCN3CCOCC3)c(OC)c1)C(C#N)=C(N)O2 (centres undefined)	-2	2	-7	1	i	0	-17	6
C[C@H](CO)N1C[C@H](C)[C@@H](CN(C)C(=O)NC2CCCCC2)Oc2ccc(NC(=O)NC3CCCCC3)cc2C1=O	x	x	2	5	x	-4[16.7 µM]	7&3	x
CCN(C[C@H]1N[C@@](Cc2ccccc2)(C(=O)OC)[C@H]2C(=O)N(Cc3ccccc3)C(=O)[C@@H]12)S(=O)(=O)c1ccc(OC)cc1	x	x	-2	-10	x	-103	-15	x
Cc1ccc(S(=O)(=O)N2CCC(C(=O)Nc3ncccc3O)CC2)cc1	-9	x	-3	-1	x	x	-15	x
CCOC(=O)C(Cc1ccccc1)(Cc1ccccc1)C(C)=O	4	2	-2	1	i	29	-27	-2
NC(=O)NC(=O)COC(=O)c1ccc(Cl)c(S(=O)(=O)N(Cc2ccccc2)c2ccc(Cl)cc2)c1	86*	16*	5	1	i	8	x	83	eIF4H inh retest=34;PABP FP inh retest=52*
COCCN1C(=O)c2ccccc2C1c1nc2ccccc2[nH]1 (centres undefined)	x	x	4	8	x	-13	-18	x
Cc1nn(CC(=O)Nc2ccc(S(N)(=O)=O)cc2)c(=O)c2ccccc12	-5	5	-1	2	i	5	-12	11
COc1ccc(C(=O)Nc2cc3c4c(c2)CC(=O)N4CCC3)c(OC)c1	4	x	-8	-6	i	x	-2	x
O=C(COC(=O)c1ccc(Br)cc1)Nc1ccccc1Br	-9	7	9	4	i	0	x	4
Cc1cc(=O)[nH]c(SCC(=O)c2ccc(O)c(O)c2)n1	x	14	3	0	i	2	-26	34
CCN1CCN(C(=O)CCc2nnc3ccc(N4CCN(c5cccc(OC)c5)CC4)nn23)CC1	-14	-7	-3	3	i	-6	-8	5
COc1ccc2oc(C(=O)Nc3nc(-c4ccccn4)cs3)c(C)c2c1	30	x	-1	4	i	6	x	x
COCCNC(=O)c1ccccc1-c1nc(-c2ccccc2OC)no1	1	14	-2	4	i	x	x	5
CN(NC(=O)c1ccc(Cl)cc1)c1ncc(C(F)(F)F)cc1Cl	-11	-4	1	1	i	0	x	0
COc1ccc(NC(=O)c2cc(C)on2)cc1	-6	-6	1	4	i	-6	x	1
COc1cc(-c2cnc3c(NC=O)cc(-c4ccc(C)cc4)cn23)cc(OC)c1OC	x	x	6	-3	x	-151	-14	x
Fc1ccccc1N1CCN(c2ncnc3[nH]ncc23)CC1	-2	6	4	2	i	x	-7	12
O=C(N/N=C/c1ccccc1O)C1CC(=O)N(c2ccc(F)cc2)C1 (centres undefined)	49	2	4	-1	i	3	-25	2
Cc1conc1NC(c1cccs1)c1ccc2cccnc2c1O (centres undefined)	101*	3	x	x	i	x	x	13
CCS(=O)(=O)N1CCC(C(=O)c2ccc(Cl)cc2)CC1	-7	u	3	-2	i	x	10	5
CCOC(=O)c1ccc(S(=O)(=O)Nc2ccc3cn[nH]c3c2)cc1	-4	2	5	-7	i	u	x	-1
CSc1nsc(SCC(=O)Nc2ccccc2F)n1	10	-6	-2	-1	i	-16	-22	-11
CCOC(=O)c1c(NC(=O)C2COc3ccccc3O2)sc2c1CC(C)(C)NC2(C)C (centres undefined)	u	-3	-3	-8	i	5	x	5
COCCCn1c(SCC(=O)N2CCOCC2)nc2cc(Cl)ccc2c1=O	x	x	1	1	x	-5	-8	x
Cc1nn(CC(=O)O)c(C)c1N	-20	-6	4	3	i	5	-21	-2
CC(=O)N1c2ccc(S(=O)(=O)N3CCC(C(=O)Nc4ccc(F)cc4)CC3)cc2CC1C (centres undefined)	-8	1	5	-14	i	19	-13	-11
CC1CCN(CCOc2cccc(Br)c2)CC1	17	3	2	4	i	10	-12	-5
O=C(Cc1ccccc1)NCCSCc1ccco1	-6	-6	-10	1	i	x	-10	-4
CC(NC(=O)COC(=O)CSCc1ccccc1)c1ccccc1 (centres undefined)	8	-5	1	3	i	1	x	-6
COc1ccc(CCn2c(=O)[nH]c3cc(C(=O)NCCN4CCOCC4)ccc3c2=O)cc1OC	-15	-4	18	-1	i	-31	x	5
COc1ccc(OCC(=O)NC2CC(C)(C)NC(C)(C)C2)cc1	-16	5	1	5	i	x	-14	-8
Cc1cccc(NC(=O)CN2CCN(C(=O)c3cc(C4CC4)nn3-c3ccccc3)CC2)c1C	x	x	0	2	x	9	-10	x

Screening data deposited in PubChem by several laboratories.
